# T cruzi repl – inhibitors of intracellular T. cruzi growth, primary screen, luminescence, NIH3T3 host cells; hit rate 1.4% among 300,000; AID 1885, 2009; T. cruzi beta-gal in NIH3T3, 90 h; inhibition, % (test concentration not listed);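 active = mean inhibition across valid replicates above about 55%, limit read from the data; inconclusive = mean below that limit but half or more replicates reach it; inactive = mean below it, under half of replicates reach it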;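 note: signal also drops with host cell toxicity which is not excluded here; 0% = plate median of DMSO wells and 100% = zero luminescence signal; higher percent means less beta-gal luminescence so fewer parasites; stock transfer was 50 nL into about 50 µL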
# RanGTP-Impb inh – inhibitors of RanGTP-importin-beta interaction, primary screen, biochemical, FRET, CFP-Ran, YFP-importin-beta, homogeneous; Ran GTPase (GTP-bound) - importin-beta complex; cell-free CFP-Ran/YFP-importin-beta FRET ratio; inhibition, % (test concentration not listed); hit rate 1.1% among 300,000; AID 2216, 2009;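 active = most replicates above 15%; inconclusive = exactly half above 15%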;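 note: 0% = DMSO wells and 100% = Ran loaded with GDP instead of GTP; wells of about 40 µL received 100 nL stock; the first replicate is given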
# Calb FLC – C. albicans growth inhibition with fluconazole, primary screen, CaCi-2 strain, Alamar Blue fluorescence. hit rate 0.57% among 300,000. growth inhibition, % (concentration not given with the values). C. albicans CaCi-2 (fluconazole-resistant clinical isolate) + fluconazole, 48 h. AID 1979, 2009;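 active = most replicates above 75%; inconclusive = exactly half above 75%; inactive = most below 75%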;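 note: all wells also contain fluconazole at 8 µg/ml as a sub-toxic cotreatment; 0% = median of DMSO wells and 100% = median of geldanamycin control wells; wells of about 8 µL received 7.5 nL stock; the first replicate is given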
# AF4-AF9 inh – inhibitors of AF4 peptide binding to AF9, primary screen, biochemical, AlphaScreen, biotin-AF4 peptide, FLAG-AF9, single point; Protein AF-9 (Homo sapiens), P42568; inhibition, % at 10 µM; hit rate 0.47% among 350,000; AID 651704, 2012;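 active = every replicate reaching a set inhibition limit, whatever the replicate mean, cut at about 25% in these data; inconclusive = mean inhibition reaches that limit but some replicates miss it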;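 note: 0% = plate neutral control median and 100% = total signal loss; the record names both 10 and 1 µM as test concentration; the first replicate is given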
# Target sequence (P42568 whole entry, looked up): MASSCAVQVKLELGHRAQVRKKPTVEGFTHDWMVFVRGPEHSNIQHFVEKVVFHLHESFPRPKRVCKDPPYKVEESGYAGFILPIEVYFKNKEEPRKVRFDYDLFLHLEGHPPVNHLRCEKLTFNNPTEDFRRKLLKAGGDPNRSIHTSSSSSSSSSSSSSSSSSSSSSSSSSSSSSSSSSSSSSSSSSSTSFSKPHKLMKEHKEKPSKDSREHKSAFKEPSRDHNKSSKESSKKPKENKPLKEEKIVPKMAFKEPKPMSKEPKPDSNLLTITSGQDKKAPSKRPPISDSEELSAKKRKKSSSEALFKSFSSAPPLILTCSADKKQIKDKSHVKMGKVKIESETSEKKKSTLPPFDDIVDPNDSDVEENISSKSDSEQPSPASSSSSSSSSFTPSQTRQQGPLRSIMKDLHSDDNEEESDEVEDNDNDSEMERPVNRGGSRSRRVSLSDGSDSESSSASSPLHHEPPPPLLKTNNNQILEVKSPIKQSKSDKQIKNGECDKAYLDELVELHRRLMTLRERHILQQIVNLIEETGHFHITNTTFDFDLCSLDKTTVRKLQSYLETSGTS
# Beta apoptosis – inhibitors of cytokine-induced beta cell apoptosis, primary screen, luminescence | INS-1E cytokine-induced death, ATP luminescence, 48 h; percent of positive-control rescue, neutral wells zero | protection from apoptosis, % (concentration not given with the values) | hit rate 0.8% among 300,000 | AID 435005, 2010;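 active = all replicates at 75% or more, or half of them and the mean; inconclusive = half reach 75% but not the mean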;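 note: 0% = cytokine-treated negative control wells and 100% = positive control rescue; higher means more ATP so stronger rescue from cytokine killing; wells of about 40 µL received 100 nL stock; the first replicate is given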
# Ecoli rRNA inh – reduced GFP signal of wild-type E. coli, primary screen, bacterial rRNA inhibitor project, GFP/RFP fluorescence, OD600, single point; E. coli WT GFP vs humanized-ribosome RFP mutants, 24 h; hits give low values; DMSO median 0, no signal -100; GFP signal change (wild-type ribosome), % (test concentration not listed); hit rate 1.6% among 350,000; AID 720706, 2013;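 active = significant combined selectivity score with lowered wild-type GFP, culture density cut under 30%, mutant RFP and density less affected; inactive = any of these conditions unmet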; note: one replicate is shown; some compounds called inactive have numbers as strong as hits
# Vif A3G – inhibitors of Vif binding to APOBEC3G peptide, primary screen, biochemical, TR-FRET, GST-Vif 1-94, biotin-A3G peptide, dose response retest (AID 1117319) | Virion infectivity factor (Human immunodeficiency virus type 1 group M subtype B (isolate … | TR-FRET GST-Vif / biotin-A3G peptide binding; higher % means a stronger effect; test concentration not given here; strong numbers were not always called active | one-dose inhibition, %; IC50 in µM for titrated hits | hit rate 0.57% among 260,000;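 active = above the screen mean plus three standard deviations and confirmed in dose response; inconclusive = results disagree or hit not tested in dose response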;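 note: Vif residues 1-94 fused to GST binding biotinylated APOBEC3G peptide 110-148; 0% = full assay without inhibitor and 100% = GST in place of GST-Vif; retest series ran down from 100 µM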
# A1 inh – caspase 3/7 activation in MEF A1-2A-BIM cells, primary screen, A1 inhibitor project, cell-based, luminescence, HTS; Caspase-Glo 3/7 luminescence, 3 h; percent of clofoctol response, vehicle zero; caspase activation, % (no concentration beside the values); hit rate 0.066% among 330,000; AID 2462, 2010;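 active = over half of replicate activation scores above 10%, or exactly half above 10 with the replicate mean above 10; inconclusive = replicate mean below 10 yet half the replicates above 10; inactive = over half of replicates below 10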;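 note: wells of about 30 µL received 50 nL stock; many hits fall short of the cut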
# Ecoli rRNA inh OD600 – recorded beside Ecoli rRNA inh, whose call it bears; OD600 change, %; measured here: OD600 growth;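 optical density of the mix in the first replicate; 0 = DMSO median and -100 = no signal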
# Ecoli rRNA inh RFP – also measured in Ecoli rRNA inh; calls as there; RFP signal change, %; measured here: RFP humanized mutant strains;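 first replicate; 0 = DMSO median and -100 = no signal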
# An asterisk follows results filed as active; ? = inconclusive; · = not tested or not shown. These rows are one share of the data (hit frequency here may not be typical).
SMILES,T cruzi repl,RanGTP-Impb inh,Calb FLC,AF4-AF9 inh,Beta apoptosis,Ecoli rRNA inh,Ecoli rRNA inh OD600,Ecoli rRNA inh RFP,Vif A3G,A1 inh
CN1C=CC2=C(C#N)C(N)C(C#N)(C#N)C(c3ccccc3)C2C1 (stereo unspecified),23,40*,0,·,-4,·,·,·,3%,-0.1
O=C(NC(=S)NCc1ccco1)c1ccc(Br)cc1,-7,-3.5,-7,-15,-1,-4,-1,6.3,·,0.5
COc1cccc(C(=O)Nc2nnc(SCC(=O)Nc3ccc(NC(C)=O)cc3)s2)c1,-13,-3.6,9,-1.2,-2,-15,-12,1.7,·,-4.3
CCOC(=O)c1c(NC(=O)CS(=O)(=O)c2cn(CC)c3ccccc23)sc2c1CCCC2,10,6.9,0,-5.2,-1,1,5,-3.7,-11%,-0.2
CCOC(=O)C1CCCN(C(=O)/C=C/c2cc(OC)c(OC)c(OC)c2)C1 (stereo unspecified),9,-2.5,-4,0.7,3,1,0,-0.1,26%,-0.4
O=C(c1ccc(-c2ccc([N+](=O)[O-])cc2)o1)N1CCCCC1,-8,-0.5,-11,2.9,5,3,16,-1.6,·,0.3
COCCC(=O)N1CCC(Oc2ccc(C(=O)NC(C)CCn3cccn3)cc2)CC1 (stereo unspecified),-17,-1.6,-14,-2.9,0,9,12,1.7,·,0.8
O=C(NNC(=O)c1csc(N2CCOCC2)n1)c1ccc(Cl)nc1,3,2.9,·,1.8,-1,12,15,3.1,3%,0.6
Cc1ccc(SCc2nc3ccccc3n2CC(=O)Nc2ccccc2)cc1,33,0.1,26,·,-6,·,·,·,-7%,-0.6
C#Cc1ccc(CN2CCC(N3CCC(C(=O)NCc4ccccn4)CC3)CC2)cc1,-6,4.9,26,-5.1,-3,2,0,0.7,·,1.3
Cc1cc(O)ccc1N/C=C1\CCCC1=O,13,0.3,5,·,-3,·,·,·,·,-0.4
COc1cc(OC)nc(NC(C)=O)n1,-7,1.7,-3,·,-12,·,·,·,6%,0.1
CC1=C(C)CC(C(=O)NNC(=O)c2ccccc2)C(C(=O)O)C1 (stereo unspecified),-16,1.0,-6,·,-2,·,·,·,-2%,-1.1
Cc1ccc(C)c(NC(=S)N/N=C/C(C)c2ccccc2)c1 (stereo unspecified),-2,0.5,-7,-0.4,-4,-5,-7,0.2,-5%,0.9
Cc1cccc(N(C)S(=O)(=O)c2ccc3c(c2)C(C)(C)C(=O)N3C)c1,-4,?,-3,-0.7,1,-6,-17,-0.7,·,-0.5
COc1cc(/C=N/Nc2ccc(C(F)(F)F)cn2)ccc1O,6,-3.0,-10,2.0,-6,-17,-11,-0.8,-1%,-0.6
O=C(CN1CCCCCC1)NC(c1ccccc1)c1ccccc1,15,1.2,-6,1.1,0,9,5,-0.1,·,0.2
Cc1ccc(C)c(S(=O)(=O)N2CCCN(C)CC2)c1,13,8.0,4,1.3,7,5,13,-3.8,·,0.1
CCN(CC(=O)Nc1c(F)cccc1F)C(=O)CSc1nnc(-c2ccco2)n1CC,3,8.5,5,-0.6,0,-1,21,0.6,·,-1.3
Cc1ccc2cccnc2c1NC(=S)NC(=O)c1ccccc1,-8,1.7,34,·,-9,·,·,·,2%,-0.5
Cc1cccc2cc3c(N)c(C(=O)N4CCOCC4)sc3nc12,-10,4.9,29,·,-1,·,·,·,0%,-0.5
COc1ccccc1C(=O)Nc1ccc(S(=O)(=O)Nc2cc(C)nc(C)n2)cc1,8,5.5,-9,·,·,·,·,·,65%,0.7
COCCNC(=O)c1c[nH]c2ccc(S(=O)(=O)Nc3ccccc3F)cc2c1=O,1,1.6,0,-15,-5,0,1,1.7,6%,0.2
COc1ccc([N+](=O)[O-])cc1NC(=O)C(C)OC(=O)C1CCCC1 (stereo unspecified),6,1.4,-6,2.5,-3,-3,-7,-0.6,·,0.5
CCN(CC)CCCN1C(=O)c2oc3ccccc3c(=O)c2C1c1cccc(OC)c1OC (stereo unspecified),-4,-1.7,-1,·,-2,·,·,·,-2%,0.8
# Continued:
SMILES,T cruzi repl,RanGTP-Impb inh,Calb FLC,AF4-AF9 inh,Beta apoptosis,Ecoli rRNA inh,Ecoli rRNA inh OD600,Ecoli rRNA inh RFP,Vif A3G,A1 inh
Cc1cccc(N(C(=O)c2ccc(Cl)cc2)C2CS(=O)(=O)CC2OC(=O)c2ccc(Cl)cc2)c1 (stereo unspecified),30,-7.8,7,-40,9,9,1,5.0,77%,-0.7
O=C1CC(N2CCOCC2)C(=O)N1c1ccc(Cl)cc1 (stereo unspecified),8,3.1,-1,-0.8,-12,4,-3,-2.2,89%,1.1
Cc1ccc(C=Nc2ccccc2C(N)=O)s1,-46,5.2,-3,·,8,·,·,·,77%,?
O=S(=O)(NC1CCCCC1N1CCC(O)CC1)c1ccc(Cl)cc1 (stereo unspecified),-13,75*,-11,3.3,-4,14,6,-0.8,-1%,1.4
CCCC(NC(=O)C(C)NC(=O)CO/N=C1\C=C2CCC3C4CCC(C(C)=O)[C@@]4(C)CCC3[C@@]2(C)CC1)C(=O)O (stereo partly specified),-4,-4.2,-3,0.3,2,-1,16,15,2%,0.9
CCOc1ccc(C(C)NC(=O)c2cccs2)cc1OCC (stereo unspecified),-1,-0.2,-3,-5.3,-6,2,6,-1.3,·,0.0
CN1C(=O)/C(=C/c2ccc(OCc3ccc(F)cc3)cc2)N(C)C1=S,7,0.0,-5,6.0,4,0,7,0.9,29%,-0.1
O=C(NCCCN1CCCC1=O)c1cccc(Oc2ccccc2)c1,-15,-1.8,-31,1.0,1,3,-3,0.2,5%,-1.3
CC(C)Oc1ccc(S(=O)(=O)N2CCOCC2)cc1NC(=O)c1ccc(N2CCCC2=O)cc1,24,-0.3,9,2.5,1,14,11,-1.0,·,0.7
Cc1cc(S(=O)(=O)n2ccnc2)c(Cl)cc1Cl,-1,1.0,-5,-0.9,-3,16,13,1.1,70%,0.9
CCn1c(=O)c(C(=O)CN2CCN(S(=O)(=O)c3ccc(C)cc3C)CC2)c(N)n(Cc2ccccc2)c1=O,47,9.4,3,5.1,4,-13,-7,16,·,-0.6
COCc1n[nH]c(=S)n1-c1ccccc1,2,1.6,17,·,-3,·,·,·,-5%,-0.4
COc1cccc(CN2CCN(Cc3ccc4c(NC(C)=O)cccc4n3)CC2CCO)c1 (stereo unspecified),6,7.2,-6,-1.2,-5,7,9,4.9,5%,0.1
COc1cccc(-c2coc3cc4oc(=O)c(CCC(=O)O)c(C)c4cc23)c1,5,0.1,10,-1.2,-4,-33,-62,-2.7,·,0.7
COC(=O)c1cccc(NC(=S)Nc2ccccc2Cl)c1,-13,5.5,0,2.6,-2,-2,8,3.9,3%,-0.7
CC12CCC(C(=O)Nc3cc(Cl)ccc3Cl)(C(Br)C1=O)C2(C)C (stereo unspecified),22,-0.3,-4,·,0,·,·,·,27%,0.2
CCOc1ccc(CNC(=O)Cn2c(=O)c3cccn3c3ccccc32)cc1,9,-2.9,-14,-1.0,3,1,0,-1.6,·,0.0
COc1ccc(C(=O)NC(=S)Nc2ccc(CN3CCOCC3)cc2)cc1OC,2,?,2,4.0,-4,11,6,0.6,-5%,-1.1
CCc1ccc(NC(=O)c2cnccn2)cc1,0,3.4,3,-3.3,0,-4,0,-2.0,·,-6.6
COc1cccc(NC(=O)c2cnsn2)c1,1,-2.3,18,·,-2,·,·,·,26%,-2.1
CC(OC(=O)c1n[nH]c2ccccc12)C(=O)NC1CCCCC1C (stereo unspecified),·,·,·,-1.7,-2,-2,1,-3.7,1%,-2.4
Cc1cc(C)c(NC(=S)N2CCC(N(C)CC3CCCO3)CC2)c(C)c1 (stereo unspecified),-23,7.1,41,·,-6,·,·,·,2%,0.6
Cc1ccccc1C1c2[nH]c3ccccc3c2C[C@H]2C(=O)N(c3ccccc3C(=O)NCCN3CCOCC3)C(=O)N12 (stereo partly specified),7,8.8,25,4.4,-1,12,1,0.9,·,0.7
O=C(Nc1cccc(C(F)(F)F)c1)c1cccnc1N1CCN(c2ccccc2)CC1,34,-0.1,?,·,3,·,·,·,4%,-0.1
COc1ccc(NC2CCCN(C(=O)CCc3ccncc3)C2)cc1OC (stereo unspecified),1,-0.8,-9,-1.9,2,0,3,-1.6,·,-2.5
# Next section
SMILES,T cruzi repl,RanGTP-Impb inh,Calb FLC,AF4-AF9 inh,Beta apoptosis,Ecoli rRNA inh,Ecoli rRNA inh OD600,Ecoli rRNA inh RFP,Vif A3G,A1 inh
Cc1ccccc1CN1C(=O)C2(OCCCO2)c2ccccc21,-9,-5.4,0,-87,·,·,·,·,-1%,·
N#Cc1c(N)sc2c1CCCCCC2,13,-7.7,-2,·,3,·,·,·,22%,0.4
CCCCn1c(SCC(=O)NC2CC2)nnc1-c1ccncc1,6,-2.8,-1,-2.1,-3,1,1,-3.7,·,0.1
CCOc1ccc(CC(=O)NCc2ccc3c(c2)cc(C)n3C)cc1,-3,1.1,1,5.1,5,-1,18,44,-31%,-0.1
O=C(Nc1ccccn1)C1(c2ccccc2)CCCC1,13,-1.0,15,-0.4,7,-13,-13,-4.4,-4%,1.0
O=C(NCc1ccc2c(c1)OCO2)Nc1ccc(Cl)cc1,-7,1.7,-7,-1.7,0,3,7,0.2,·,-0.5
COC(=O)/C(=C/Nc1cccc2ccccc12)[N+](=O)[O-],7,-6.0,-4,7.8,4,-21*,8.2*,-2.4*,?,-0.1
O=C(c1ccc(NS(=O)(=O)c2ccc3[nH]c(=O)[nH]c3c2)cc1)N1CCN(c2ccccc2O)CC1,-15,1.5,5,1.2,0,5,10,3.5,1%,0.1
CCOC12NC(=O)CC(=O)N1C(c1ccccc1)=CS2 (stereo unspecified),-3,·,1,·,·,·,·,·,17%,-0.1
Cc1ccc(S(=O)(=O)N2CCN(Cc3ccsc3)CC2)cc1,5,-1.6,3,-6.1,1,-19,-24,-3.4,9%,0.3
COc1ccc(N=Nc2cc(-c3ccccc3)ccc2O)cc1,-14,-2.7,1,-12,-8,4,4,-0.9,5%,-1.1
C=CCn1c(SCC(=O)c2[nH]c(C)c(C(=O)OCC)c2C)nc2scc(-c3ccc(OC)c(OC)c3)c2c1=O,21,-1.5,2,·,95*,·,·,·,·,1.8
COc1cc(/C=N/NC(=O)c2cccnc2)ccc1OCC(=O)Nc1ccccc1Cl,4,0.2,-7,-0.2,1,16,15,-1.1,-12%,0.1

# Screening data as filed in PubChem.
